# CSC inhib – blocks cancer stem cells | cancer stem cell-like cells viability, luminescence | inhibition, % at 7.5 µM | hit rate 1.1% among 300,000;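 active = mean at 75% or more and at least half the replicates too; tested in HMLE shEcad cells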;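 also: 0% = median of negative and 100% = median of positive control wells; the first replicate is given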
# Rce1 inhib – yeast Ras-converting enzyme inhibition. Q03530. yeast membranes, quenched prenylated peptide cleavage fluorescence. calls only. hit rate 0.27% among 290,000. AID 2563;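 active = fall in fluorescence gain of 50% or more versus controls, with final raw signal at or below 3038400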;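 also: plate controls were neutral control wells for no effect and wells lacking membranes for full effect; tested at 10 µM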
# Target sequence (Q03530 whole entry, looked up): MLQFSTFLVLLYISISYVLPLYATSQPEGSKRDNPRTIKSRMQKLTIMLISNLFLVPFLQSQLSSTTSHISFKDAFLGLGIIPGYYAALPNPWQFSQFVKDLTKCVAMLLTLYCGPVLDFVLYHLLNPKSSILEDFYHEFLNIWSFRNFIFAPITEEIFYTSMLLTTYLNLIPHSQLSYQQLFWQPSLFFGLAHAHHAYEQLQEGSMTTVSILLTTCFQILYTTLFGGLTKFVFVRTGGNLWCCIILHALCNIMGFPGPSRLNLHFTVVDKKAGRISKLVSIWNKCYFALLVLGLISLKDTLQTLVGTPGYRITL
# HIV Env fusion – inhibitors of HIV Env-mediated cell fusion; AID 651610; hit rate 1.1% among 360,000; HeLa-JRFL Env/CEM21 cell fusion, luciferase; inhibition, % at 12.3 µM;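 active = mean replicate inhibition score of at least 50 and every replicate individually at or above 50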;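 also: 0% = plate neutral controls and 100% = maraviroc near 300 nM; one replicate is shown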
# MT1-MMP act inh – blocks activation of human MT1-MMP; P50281; HT1080 RFP-PRO-GFP cells, GFP/RFP ratio fluorescence, overnight; percent of plate control window, DMSO zero; GFP/RFP ratio change, % at 20 µM; hit rate 0.061% among 360,000;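 active = GFP/RFP ratio change of at least 30% with cell ATP level not reduced by more than half and red fluorescence within 50% of control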; also: strong numbers were not always called active
#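 Test system: HT1080 RFP-PRO-GFP cells; Benchmarks: DMSO and RFP-L50D-GFP cell wells; Timing: cells overnight before dosing, compound overnight, 37 °C, 5% CO2; Compound: one 20 µM compound dose with 1% DMSO; Read-out: GFP/RFP fluorescence ratio.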
# eIF4H inh – inhibitors of RNA binding by human eIF4H | inhibition, % at 35 µM | AID 2012 | hit rate 0.94% among 290,000 | Q15056 | eIF4H fluorescence polarization binding assay;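 active = 50% or more with normal probe brightness, or confirmed in later tests; about a fifth of its hits are not listed in these tables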;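 also: calls also rest on retests at 20 µM and on dose response follow-up; 0% = protein and probe with vehicle and 100% = probe without protein; strong numbers were not always called active; many hits fall short of the cut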
# PABP polyA inh – blocks human PABP binding to poly(A) RNA; P11940; fluorescence polarization; inhibition, % at 35 µM; hit rate 1% among 290,000; AID 2014;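 active = 50% or more with normal probe brightness, or confirmed in later tests; about a fifth of its hits are not listed in these tables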;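 also: calls also rest on retests at 20 µM and on dose response follow-up; controls were probe without protein and protein plus probe with vehicle; some compounds called inactive have numbers as strong as hits; many hits fall short of the cut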
# UUG fidelity – modulators of start codon recognition fidelity in yeast; S. cerevisiae UUG-firefly luciferase reporter, luminescence/redox ratio; activity score, % at 18.7 µM; hit rate 0.13% among 350,000;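 active = replicate mean at a twofold rise or more, about +100% in these data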;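 also: firefly luciferase made from a UUG start codon reports start codon fidelity; reporter light over untreated wells divided by growth signal over untreated wells; some hits fall short of that in this replicate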
# MT1-MMP act inh RFP – recorded beside MT1-MMP act inh, whose call it bears; RFP signal change, %; measured here: RFP expression control read;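 0 = vehicle wells; hits needed this value within 50% of zero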
# * = called active by the depositor; i = inactive; x = not tested or not shown; & = joins results of further samples.
# Sequence of screens – CSC inhib | Rce1 inhib | HIV Env fusion | MT1-MMP act inh | MT1-MMP act inh RFP | eIF4H inh | PABP polyA inh | UUG fidelity
CCNC(=S)Nc1cc(OC)c(NC(=O)c2ccco2)cc1OC
  -22 | i | 1 | -3 | 0 | 11 | 4 | -25
CCN(CCCNC(=O)C1CCN(S(=O)(=O)c2c(C)[nH]c(=O)[nH]c2=O)CC1)c1cccc(C)c1
  -1 | i | x | 3 | 1 | -5 | -3 | 8
O=C(CSc1n[nH]c(-c2ccncc2)n1)Nc1ccc(F)cc1
  0 | x | -11 | -3 | -3 | 11 | -3 | -23
CC(C)=CCN1CCC(n2nccc2NC(=O)c2ccccc2Cl)CC1
  -7 | i | -13 | -5 | -4 | 7 | 5 | -19
O=C(OCc1cn([C@H]2CN(C(=O)C3CCCCC3)[C@@H](c3ccccc3)C[C@@H]2O)nn1)c1ccccc1
  x | x | -39 | -3 | -4 | x | x | -8
CN(CCOc1ccccc1Cl)Cc1ccccc1
  x | i | -4 | 0 | 1 | 10 | 22 | -1
COc1ccc(S(=O)(=O)CCc2nc3ccccc3s2)cc1
  1 | i | x | 1 | 4 | -6 | -10 | -1
CCc1c(C)nc2ncnn2c1NC1CCCc2ccccc21 (stereo not given)
  -4 | i | 3 | -10 | -12 | 5 | -6 | x
COc1ccc(NC(=O)[C@H](C)NC(=O)[C@@H]2Cc3ccccc3CN2C(=O)OC(C)(C)C)cc1
  -2 | i | -4 | -2 | 0 | -11 | 0 | 0
CC1Cc2ccccc2N1C(=O)CSc1nnc2n1C(C)(C)Cc1ccccc1-2 (stereo not given)
  34 | i | -42 | 3 | 0 | 2 | -6 | -12
COc1ccc(/C=C2\N=C(C)OC2=O)cc1OC(C)=O
  -1 | i | -1 | -3 | -1 | 6 | -1 | -16
CC1CCCN(C(=S)Nc2ccc(S(=O)(=O)N3CCCCC3)cc2)C1 (stereo not given)
  -6 | i | 0 | 4 | 0 | -6 | 4 | x
O=C(NCC1CC1)c1ccc2c3n(nc2c1)-c1ccc(Cl)cc1CO3
  1 | i | -101 | 4 | 0 | x | x | -15
NC(=S)N/N=C/c1ccc(-c2cc(Cl)cc(Cl)c2)o1
  20 | i | x | -3 | 2 | 9 | 4 | -12
O=C(C[C@@H]1C/C=C\C[C@H](NC(=O)OCC2c3ccccc3-c3ccccc32)C(=O)OC[C@@H]2CCCN2C1=O)N[C@@H](CO)Cc1ccccc1
  -1 | x | 14 | -1 | 1 | x | x | 2
CCc1ccccc1NC(=O)C1=CN2CCS(=O)(=O)N=C2C=C1
  x | x | -13 | 1 | 5 | x | x | -11
O=C(CN1C(=O)c2ccccc2C1=O)c1ccccc1
  6 | i | x | 3 | 2 | 0 | 4 | -12
COc1cc(S(=O)(=O)N2CCOCC2)ccc1NC(=O)CSc1n[nH]c(=O)[nH]c1=O
  -7 | i | -21 | -2 | 3 | 8 | -2 | x
CCOC(=O)c1[nH]c2ccc(Br)cc2c1NC(=O)CCN1CCCC(C)(C)C1
  -12 | i | x | -11 | -7 | 1 | -14 | x
COc1ccc(NC(=O)Cn2nnc(C(N)=O)c2N)c(OC)c1
  -10 | i | -38 | -6 | 0 | -8 | 0 | -17
Cc1ccc(N=c2ssnc2Cl)cc1
  -1 | i | -66 | -2 | 6 | 0 | 4 | -20
COc1ccc(S(=O)(=O)N2CCOCC2)cc1NC(=O)CSc1ncccn1
  -8 | x | -14 | 0 | -2 | x | x | -23
COc1cccc(C(C)NC(=O)Cc2cccs2)c1 (stereo not given)
  -10 | i | -15 | 0 | 0 | 0 | 4 | -10
CCOC(=O)c1ccc2[nH]cc(C(C)=O)c(=O)c2c1
  3 | i | -11 | 0 | 0 | -8 | 1 | -6
CN(C)[C@H]1N(C(=O)c2ccc(Br)cc2)N=C2c3ccccc3S(=O)(=O)N21
  2 | i | -3 | -1 | -5 | 8 | 1 | 1
CNC(=O)c1sc(Nc2ccc(OCc3ccccc3)cc2)nc1C
  15 | i | 21 | -5 | -20 | 8 | 18 | -17
COc1ccccc1NC(=O)Nc1ccccc1C(N)=O
  -11 | x | 6 | -2 | 6 | -6 | 10 | x
C=C(C)C1CC=C(C)/C(=N\NC(=O)CNc2cccc3ccccc23)C1 (stereo not given)
  8 | i | -6 | -3 | 2 | 0 | -12 | x
NC(=O)COc1ccccc1C(=O)NC12CC3CC(CC(C3)C1)C2
  -8 | i | 8 | -2 | 0 | -5 | 0 | -15
Cn1cc(CCC(=O)NCc2cccc(Cl)c2)c2ccccc21
  x | i | 17 | -1 | -1 | 1 | 15 | -11
O=C(COc1ccccc1)N=C1SC2CS(=O)(=O)CC2N1c1ccccc1 (stereo not given)
  -12 | i | 6 | 1 | 1 | -3 | -4 | -5
COc1cc(OC)c(C2C(C(=O)Nc3ccccc3)=C(C)Nc3ncnn32)cc1OC (stereo not given)
  -10 | i | 16 | 6 | 6 | -7 | 2 | -19
CCOc1ccc2[nH]c(C)c(CN3CCCCC3)c(=O)c2c1
  0 | i | -23 | 3 | 5 | -2 | -13 | -7
CCC(CO)Oc1cc(NC(=O)c2ccccc2)c2ncn(C(C)C)c2c1 (stereo not given)
  2 | x | 3 | -1 | -2 | x | x | 8&-15
Nc1cc([N+](=O)[O-])ccc1Nc1ccccc1
  1 | i | 19 | 4 | 1 | -9 | -14 | x
O=C(C1=C(O)C(=O)N(Cc2ccccc2)C1c1ccco1)c1ccco1 (stereo not given)
  -11 | i | x | 0 | 5 | 15 | 11 | -23
CCCCN1CCCCC1(C)C(=O)NCc1ccc2c(c1)OCO2 (stereo not given)
  x | x | 15 | 2 | 3 | x | x | -15
COc1ccc(N2CC(C(=O)N3CCN(Cc4ccc5c(c4)OCO5)CC3)CC2=O)cc1 (stereo not given)
  10 | i | -4 | -2 | -5 | 1 | -6 | -2
Cc1cc(OCc2nc(-c3cccs3)no2)cc(C)c1Cl
  -3 | i | -18 | -2 | -4 | 2 | -4 | -7
CCN(CC)C(=O)C1CCN(Cc2ccc(Br)cc2)CC1
  9 | i | 20 | -2 | 3 | -3 | 4 | 2
COc1ccccc1/C=C/CN1CCN(c2ccccc2)CC1
  8 | i | 25 | -1 | 9 | 0 | 12 | -17
O=c1[nH]c(=O)n(CCO)c2nnn(Cc3ccccc3)c12
  -4 | x | x | 12 | 2 | -2 | -6 | 1
Cc1ccc(SCC(=O)Nc2cccc(NC(=O)c3ccco3)c2)cc1
  8 | i | x | 3 | 2 | -8 | 1 | -6
Cc1ccc2[nH]c(=O)c3cc(C(=O)N(CCCOC(C)C)Cc4ccco4)sc3c2c1
  9 | i | -22 | -2 | -16 | -1 | -1 | -5
Cc1ccc(S(=O)(=O)c2ccc([N+](=O)[O-])cn2)cc1
  100* | i | -349 | 1 | -15 | -4 | -7 | -30
CN(C)S(=O)(=O)c1cccc(COC(=O)CNC(=O)c2ccc(Br)o2)c1
  x | x | -10 | 0 | 4 | x | x | -14
CCOc1cc(/C=N/Nc2ncc(C)c(=O)[nH]2)ccc1O
  -4 | i | -27 | 4 | 3 | 9 | 5 | x
Brc1ccc(-c2csc(N/N=C/c3ccco3)n2)cc1
  27 | i | -23 | 2 | -7 | 11 | 11 | -20
O=C(NCc1ccc(F)cc1)C1CCN(S(=O)(=O)c2ccc(N3CCCC3=O)cc2)CC1
  x | x | -9 | 6 | -9 | x | x | 7
CCOC(=O)C1C(=O)C=C(c2cccs2)CC1c1ccccc1 (stereo not given)
  9 | i | 34 | 2 | -1 | -4 | 4 | x
O=C(Nc1ccc(Br)cn1)c1cccc2c1-c1ccccc1C2=O
  69 | i | -121 | -7 | -14 | -5 | -12 | x
CCCc1cc(=O)n2[nH]c(CCc3ccccc3)nc2n1
  -4 | i | -10 | 1 | 0 | -7 | 0 | -6
CN(C)CC(O)COC(c1ccc(Cl)cc1)c1ccc(Cl)cc1 (stereo not given)
  14 | i | 10 | -2 | -2 | 8 | 22 | 1
O=CNc1c(Br)cc2c(c1Br)Cc1cc(Br)ccc1-2
  x | x | -127 | -3 | 2 | x | x | -14
COc1cc(NS(=O)(=O)c2ccc(NC(=O)CN3C(=O)c4ccccc4C3=O)cc2)ncn1
  -6 | i | -42 | 4 | 9 | 5 | -1 | x
COc1ccc(C(=O)N2CCCCC2C(=O)Nc2ccc(-n3nc(C)cc3C)cc2)o1 (stereo not given)
  10 | i | 5 | -3 | -3 | -14 | -4 | 12
O=C(C1CCN(S(=O)(=O)c2cccs2)CC1)N1CCCCCC1
  x | i | -9 | 3 | 4 | -8 | 5 | -5

# Grouped by structure, those above containing a Cl atom.
# Sequence of screens – CSC inhib | Rce1 inhib | HIV Env fusion | MT1-MMP act inh | MT1-MMP act inh RFP | eIF4H inh | PABP polyA inh | UUG fidelity
CC(C)=CCN1CCC(n2nccc2NC(=O)c2ccccc2Cl)CC1
  -7 | i | -13 | -5 | -4 | 7 | 5 | -19
CN(CCOc1ccccc1Cl)Cc1ccccc1
  x | i | -4 | 0 | 1 | 10 | 22 | -1
O=C(NCC1CC1)c1ccc2c3n(nc2c1)-c1ccc(Cl)cc1CO3
  1 | i | -101 | 4 | 0 | x | x | -15
NC(=S)N/N=C/c1ccc(-c2cc(Cl)cc(Cl)c2)o1
  20 | i | x | -3 | 2 | 9 | 4 | -12
Cc1ccc(N=c2ssnc2Cl)cc1
  -1 | i | -66 | -2 | 6 | 0 | 4 | -20
Cn1cc(CCC(=O)NCc2cccc(Cl)c2)c2ccccc21
  x | i | 17 | -1 | -1 | 1 | 15 | -11
Cc1cc(OCc2nc(-c3cccs3)no2)cc(C)c1Cl
  -3 | i | -18 | -2 | -4 | 2 | -4 | -7
CN(C)CC(O)COC(c1ccc(Cl)cc1)c1ccc(Cl)cc1 (stereo not given)
  14 | i | 10 | -2 | -2 | 8 | 22 | 1

# Profiles, looked up by structure:
# CCCCN1CCCCC1(C)C(=O)NCc1ccc2c(c1)OCO2 (stereo not given) across the screens: CSC inhib = x; Rce1 inhib = x; HIV Env fusion = 15; MT1-MMP act inh = 2; MT1-MMP act inh RFP = 3; eIF4H inh = x; PABP polyA inh = x; UUG fidelity = -15
# O=c1[nH]c(=O)n(CCO)c2nnn(Cc3ccccc3)c12 across the screens: CSC inhib = -4; Rce1 inhib = x; HIV Env fusion = x; MT1-MMP act inh = 12; MT1-MMP act inh RFP = 2; eIF4H inh = -2; PABP polyA inh = -6; UUG fidelity = 1

# High-throughput results from PubChem BioAssay.

# Compounds were not picked by outcome; overall some 2.9% were active at least once.
